Bioassay records: PubChem BioAssay, Broad Institute
Vaccinia stage = blocks a specific stage of Vaccinia orthopoxvirus infection, primary screen, cell-based, single point | 89,000 tested, 0.01% active | Vaccinia-infected cells, mCherry/Venus stage reporter fluorescence; stronger effect = lower value; some inactives read as strong as hits | AID 1053133, 2014 | activity change (mCherry), % (concentration not given with the values);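 active = mCherry past -33% and 40 or more points under the early reporter, replicates agreeing; inconclusive = past -33% without that gap or agreement; tested in A549 cells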;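 note: scaled between vehicle wells and reference inhibitor wells; 23 nL library stock went into each well; one replicate is shown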
Vaccinia stage Venus = also measured in Vaccinia stage; calls as there; activity change (Venus), %; measured here: Venus reporter, other viral stage;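 negative = less Venus signal; first of two replicates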
* hit, by the source's call; ? = inconclusive; / = no result given; & = joins results of further samples. An excerpt; rates above refer to the full screens.

compound	Vaccinia stage Venus	Vaccinia stage
C[C@@H]1CCCCO[C@H](CN(C)C(=O)NC2CCCCC2)[C@H](C)CN([C@@H](C)CO)C(=O)c2cc(NC(=O)Nc3ccc(C(F)(F)F)cc3)ccc2O1	-13	-17
CNC[C@@H]1OCCCC[C@@H](C)Oc2ccc(NS(C)(=O)=O)cc2C(=O)N([C@H](C)CO)C[C@@H]1C	9	-2
C[C@H](CO)N1C[C@H](C)[C@H](CN(C)C(=O)Nc2cccc(Oc3ccccn3)c2)OCc2cnnn2CCCC1=O	8&6	10&12
O=C(C[C@H]1C[C@H]2c3cc(NS(=O)(=O)c4ccc(F)cc4)ccc3O[C@H]2[C@@H](CO)O1)NC1CCCC1	1	1
C[C@@H]1CN([C@@H](C)CO)C(=O)Cc2cc(NC(=O)Nc3ccc(F)cc3)ccc2O[C@@H]1CN(C)C(=O)Nc1ccccc1	8	17
Cc1ccccc1-c1cnc2c(c1)C(=O)N([C@H](C)CO)C[C@H](C)[C@@H](CN(C)CC1CCOCC1)O2	15	19
COC(=O)C[C@H]1C[C@@H]2c3cc(NC(=O)Nc4ccccc4F)ccc3O[C@@H]2[C@H](CO)O1	-7	-4
CO[C@@H]1CN(C)C(=O)c2cc(NS(=O)(=O)c3cccc(Cl)c3)ccc2OC[C@@H](C)N(C(=O)Cc2cccnc2)C[C@H]1C	-1	-2
COC(=O)[C@@H]1[C@@H](CO)[C@@H]2Cn3c(ccc(-c4ccc(F)cc4)c3=O)[C@@H]2N1S(C)(=O)=O	10	13
C[C@H](NC(=O)C[C@@H]1CC[C@@H]2[C@H](COC[C@H](O)CN2C)O1)c1ccccc1	11	23
O=C(C[C@@H]1CC[C@@H](NC(=O)c2ccncc2)[C@H](CO)O1)NCC1CC1	-2	10
C[C@@H]1CN([C@H](C)CO)C(=O)CCCn2cc(nn2)CO[C@H]1CN(C)C(=O)Nc1ccc(C(C)(C)C)cc1	5	1

Quoted at random: three entries already listed, in no set order.
compound	Vaccinia stage Venus	Vaccinia stage
C[C@@H]1CN([C@H](C)CO)C(=O)CCCn2cc(nn2)CO[C@H]1CN(C)C(=O)Nc1ccc(C(C)(C)C)cc1	5	1
O=C(C[C@@H]1CC[C@@H](NC(=O)c2ccncc2)[C@H](CO)O1)NCC1CC1	-2	10
Cc1ccccc1-c1cnc2c(c1)C(=O)N([C@H](C)CO)C[C@H](C)[C@@H](CN(C)CC1CCOCC1)O2	15	19

Going on with the list:
compound	Vaccinia stage Venus	Vaccinia stage
Cc1noc(C)c1NC(=O)NCC[C@H]1CC[C@@H](NC(=O)Cc2cccnc2)[C@@H](CO)O1	5	7
C[C@H](CO)N1C[C@H](C)[C@H](CN(C)S(=O)(=O)c2ccc(F)cc2)OCCCC[C@H](C)Oc2ccc(NC(=O)NC3CCCCC3)cc2C1=O	-25	-33
O=C(N[C@@H]1CC[C@@H](CCn2cc(C3(O)CCCC3)nn2)O[C@@H]1CO)C1CCCC1	1	-9
O=C(C[C@@H]1CC[C@@H]2[C@H](COC[C@@H](O)CN2Cc2ccccc2)O1)N[C@H]1CCN(Cc2ccccc2)C1	0	-10
C[C@H](CO)N1C[C@H](C)[C@H](CN(C)S(=O)(=O)c2ccc(F)cc2)OCc2cn(nn2)CCCC1=O	3	0
C[C@H](CO)N1C[C@H](C)[C@H](CN(C)S(=O)(=O)c2ccc3ccccc3c2)OCc2cnnn2CCCC1=O	-4&-3	-6&-10
COc1ccccc1CN1C(=O)c2ccccc2[C@@H](C(=O)NCc2ccccc2)[C@@H]1c1ccc(CO)cc1	15	20
CCC(=O)N1[C@H](CO)[C@@H](c2ccccc2)[C@@H]1CN(C)C(=O)c1ccccc1F	6	13
C[C@H](CO)N1C[C@H](C)[C@@H](CN(C)S(=O)(=O)c2ccccc2)Oc2c(NC(=O)Nc3ccc(F)cc3)cccc2C1=O	-10	-11
COCC(=O)N1[C@@H](C#N)[C@H](c2ccccc2-c2cccc(F)c2)[C@@H]1CO	-3	-4
O=C(C[C@@H]1CC[C@H](NS(=O)(=O)c2ccc(F)cc2)[C@@H](CO)O1)NC1CCCCC1	-8	-6
CC=Cc1ccc2n(c1=O)C[C@H]1[C@H](CO)[C@@H](C(=O)NCC(F)(F)F)[C@@H]2N1C(C)=O (mixture of isomers)	0	4

Record cards, as listed above. Order of screens: Vaccinia stage Venus	Vaccinia stage
C[C@H](CO)N1C[C@H](C)[C@H](CN(C)S(=O)(=O)c2ccc(F)cc2)OCc2cn(nn2)CCCC1=O across the screens: 3	0
C[C@H](CO)N1C[C@H](C)[C@H](CN(C)S(=O)(=O)c2ccc(F)cc2)OCCCC[C@H](C)Oc2ccc(NC(=O)NC3CCCCC3)cc2C1=O across the screens: -25	-33

The listing continues:
compound	Vaccinia stage Venus	Vaccinia stage
COc1ccc(S(=O)(=O)N(C)C[C@H]2Oc3ncc(-c4ccncc4)cc3C(=O)N([C@H](C)CO)C[C@H]2C)cc1	15	7
O=C(C[C@H]1C=C[C@@H](NS(=O)(=O)c2ccccc2)[C@@H](CO)O1)NCc1ccccc1F	-3	2
O=C(Nc1ccc(F)cc1)N1[C@@H]2CNc3ccccc3[C@@H]2[C@@H]1CO	-11	-22
CC(C)NC(=O)N(C)C[C@@H]1Oc2ccc(NC(=O)CCC(F)(F)F)cc2CC(=O)N([C@@H](C)CO)C[C@H]1C	9	21
CCC(=O)N1CC2(CCN(C(=O)Nc3ccc(F)cc3)CC2)c2c([nH]c3cc(OC)ccc23)[C@H]1CO	6	-1
Cc1ccc(-c2ccc3c(c2)O[C@H](CN(C)Cc2cccnc2)[C@@H](C)CN([C@@H](C)CO)S3(=O)=O)cc1	/	?
CN1C(=O)c2cc(NS(=O)(=O)c3ccc(F)cc3)ccc2OC[C@H]2O[C@H](CC(=O)NCC(F)(F)F)CC[C@H]21	1	0
C[C@@H]1CN([C@H](C)CO)C(=O)c2cc(NC(=O)Nc3cccc4ccccc34)ccc2O[C@@H]1CN(C)C(=O)Nc1cccc2ccccc12	18	34
COc1ccc(S(=O)(=O)N(C)C[C@H]2Oc3ccc(NC(=O)Nc4c(C)noc4C)cc3C(=O)N([C@@H](C)CO)C[C@@H]2C)cc1	1	4
CC(C)NC(=O)N[C@@H]1CC[C@@H](CCNC(=O)C2CCOCC2)O[C@@H]1CO	8	5
C[C@H]1CN([C@@H](C)CO)C(=O)CCCn2nncc2CO[C@H]1CN(C)C(=O)Nc1ccnc(N2CCOCC2)c1	3	11
CCCNC(=O)N1[C@@H](CO)[C@@H](c2ccccc2)[C@@H]1CNC(=O)c1cccc(F)c1	4	2
C[C@@H]1CN([C@H](C)CO)C(=O)c2cc(NC(=O)CCCN(C)C)ccc2O[C@@H](C)CCCCO[C@H]1CN(C)C(=O)NC1CCCCC1	11	6
C[C@@H]1CN([C@H](C)CO)C(=O)c2cc(NC(=O)Nc3ccc(C(F)(F)F)cc3)ccc2O[C@H]1CN(C)C(=O)Nc1ccccc1	-7	3
C[C@@H]1CN([C@@H](C)CO)S(=O)(=O)c2ccc(C#Cc3ccccc3F)cc2O[C@@H]1CN(C)C	-30	-34
C/C=C/c1ccc(C2[C@H]3CNC[C@@H]2N3Cc2cccc(F)c2)cc1 (stereo not given in full)	-7	-2
COc1ccc2c3c([nH]c2c1)[C@H](CO)N(C(=O)c1cnccn1)CC31CCN(C(=O)c2cnccn2)CC1	23	38
COc1ccc(S(=O)(=O)N(C)C[C@@H]2OCCCC[C@@H](C)Oc3ccc(NS(=O)(=O)c4c(C)noc4C)cc3C(=O)N([C@@H](C)CO)C[C@@H]2C)cc1	-10	-19
CN1C(=O)c2cc(NS(=O)(=O)c3ccc(F)cc3)ccc2OC[C@H]2O[C@@H](CC(=O)Nc3cccc4ccccc34)CC[C@@H]21	-3	-10
C[C@@H]1CCCCO[C@@H](CN(C)S(=O)(=O)c2ccc(F)cc2)[C@@H](C)CN([C@@H](C)CO)C(=O)c2cc(NS(C)(=O)=O)ccc2O1	5	11
C[C@H]1CN([C@@H](C)CO)C(=O)Cc2cc(NC(=O)Nc3cccc4ccccc34)ccc2O[C@@H]1CN(C)Cc1ccc(C(=O)Nc2ccccc2N)cc1	12	10
Cc1noc(C)c1NC(=O)N(C)C[C@H]1Oc2ncc(C3=CCCC3)cc2C(=O)N([C@@H](C)CO)C[C@H]1C	7	18
N#C[C@H]1[C@@H](c2ccc(C3=CCCCC3)cc2)[C@H](CO)N1S(=O)(=O)c1ccccc1	/	?
C[C@@H]1CN([C@H](C)CO)C(=O)c2cccc(NC(=O)c3ccc(-c4nccs4)cc3)c2O[C@H]1CN(C)CC1CC1	-17	-27

In the list so far, these contain a cyano group:
compound	Vaccinia stage Venus	Vaccinia stage
COCC(=O)N1[C@@H](C#N)[C@H](c2ccccc2-c2cccc(F)c2)[C@@H]1CO	-3	-4
N#C[C@H]1[C@@H](c2ccc(C3=CCCCC3)cc2)[C@H](CO)N1S(=O)(=O)c1ccccc1	/	?

Further results
compound	Vaccinia stage Venus	Vaccinia stage
O=C(Nc1ccccc1F)N1C[C@H]2[C@@H](c3ccccc31)[C@H](CO)N2C(=O)C1CCCC1	18	6
COc1cccc(NC(=O)N[C@@H]2C=C[C@@H](CC(=O)NCc3ccccn3)O[C@H]2CO)c1	2	2
COc1ccc(S(=O)(=O)N(C)C[C@H]2Oc3c(NC(=O)c4ccncc4)cccc3C(=O)N([C@H](C)CO)C[C@@H]2C)cc1	11	12
CCN1[C@@H]2c3ccc(-c4cccc(F)c4)c(=O)n3C[C@@H]2[C@@H](CO)[C@@H]1C(=O)OC	1	9
COc1ccc(C(=O)N2C[C@@H]3[C@H](c4ccccc42)[C@@H](CO)N3C(=O)NC(C)C)cc1	4	8
CCCC#Cc1ccc([C@H]2[C@@H](CO)N3C(=O)CN(C(=O)c4ccncc4)C[C@H]23)cc1	2	25
Cc1ccc(S(=O)(=O)Nc2ccc3c(c2)C(=O)N([C@H](C)CO)C[C@H](C)[C@@H](CN(C)C(=O)Cc2ccccc2)OCCCC[C@H](C)O3)cc1	-26	-20
Cc1noc(C)c1S(=O)(=O)Nc1ccc2c(c1)C(=O)N([C@@H](C)CO)C[C@H](C)[C@@H](CN(C)S(=O)(=O)c1ccc(Cl)cc1)OCCCC[C@@H](C)O2	/	?
COc1ccccc1S(=O)(=O)N[C@H]1CC[C@H](CC(=O)N2CCOCC2)O[C@H]1CO	15	13
CCC(=O)N1CC(=O)N2[C@H](CO)[C@H](c3ccc(C#Cc4cccnc4)cc3)[C@H]2C1	-6	-6
N#C[C@H]1[C@@H](c2ccccc2-c2ccccc2F)[C@H](CO)N1C(=O)c1ccccn1	-2	2
O=C(C[C@H]1CC[C@@H](NC(=O)Nc2ccc(F)cc2)[C@H](CO)O1)NCc1cccc(F)c1	4	4
COc1ccc(NC(=O)Nc2ccc3c(c2)CC(=O)N([C@@H](C)CO)C[C@H](C)[C@H](CN(C)C(=O)Nc2ccc(F)cc2)O3)cc1	-1	-2
Cc1ccc(S(=O)(=O)N[C@@H]2CC[C@@H](CCNC(=O)Nc3ccc(Cl)cc3)O[C@@H]2CO)cc1	4	2
CNC[C@@H]1Oc2c(NC(=O)c3cc(C)nn3C)cccc2C(=O)N([C@@H](C)CO)C[C@@H]1C	9	16
CC=Cc1ccc2n(c1=O)C[C@H]1[C@H](CO)[C@@H](C(=O)N(C)C)[C@@H]2N1Cc1cc(F)ccc1F (mixture of isomers)	9	15
CC(C)CC#Cc1ccc([C@@H]2[C@H](CO)N3CCCCN(C(=O)NC4CCCC4)C[C@@H]23)cc1	/	?
O=C(CN1CCOCC1)N1CC(=O)N2[C@H](C1)[C@H](c1ccc(/C=C/c3ccccc3)cc1)[C@@H]2CO	/	?
CC(C)NC(=O)N(C)C[C@H]1Oc2c(NC(=O)CCCCCC(=O)Nc3ccccc3N)cccc2C(=O)N([C@@H](C)CO)C[C@H]1C	17	25
O=C(NC1CCCCC1)[C@H]1[C@H](CO)[C@H]2Cn3c(cccc3=O)[C@H]2N1C(=O)CC1CC1	5	6
C[C@@H]1CN([C@H](C)CO)C(=O)c2cc(NS(=O)(=O)c3ccccc3)ccc2O[C@H]1CN(C)S(=O)(=O)c1cccs1	0	0
C[C@@H]1CN([C@H](C)CO)C(=O)c2cc(NC(=O)Nc3ccccc3)ccc2O[C@@H]1CN(C)Cc1ccc(C(F)(F)F)cc1	/	?
CC=Cc1ccc2n(c1=O)C[C@@H]1[C@@H](CO)[C@H](C(=O)N[C@@H](C)c3ccccc3)[C@H]2N1Cc1cncnc1 (mixture of isomers)	8	5
C[C@@H]1CN([C@H](C)CO)C(=O)Cc2cc(NC(=O)C3CCCCC3)ccc2O[C@H]1CN(C)Cc1ccc(Oc2ccccc2)cc1	/	?
CCC(=O)N(C)C[C@H]1Oc2cc(Br)ccc2S(=O)(=O)N([C@H](C)CO)C[C@H]1C	-2	1
Cc1noc(C)c1NC(=O)N(C)C[C@H]1Oc2ccc(NC(=O)Nc3ccc(C(F)(F)F)cc3)cc2CC(=O)N([C@H](C)CO)C[C@@H]1C	9	13
COCC(=O)N1CC(=O)N2[C@H](C1)[C@H](c1ccc(-c3ccccc3F)cc1)[C@@H]2CO	-1	0
C[C@H](O)C#Cc1ccc([C@@H]2[C@@H](CO)N3CCCCN(C(=O)c4ccncc4)C[C@H]23)cc1	20	23
C[C@@H]1CN([C@@H](C)CO)C(=O)Cc2cc(NC(=O)CCN3CCOCC3)ccc2O[C@@H]1CN(C)Cc1ccc(-c2ccccc2)cc1	/	?
